VDR inh = Inhibitors of the vitamin D receptor (VDR): qHTS. VDR-SRC2-3 peptide fluorescence polarization, 2 h. Potency, µM, without a hit: max response, negative = inhibition, usual class: inhibitors. actives 0.93% (n = 400,000). AID 504847, 2011; active = well fitted inhibition curve with a large enough effect; inconclusive = small, poorly fitted or top-dose-only effect, or another doubt; inactive = no such curve, though single readings can be large or run the other way; note: series mostly up to about 120 µM
Target sequence (P11473 whole entry, looked up): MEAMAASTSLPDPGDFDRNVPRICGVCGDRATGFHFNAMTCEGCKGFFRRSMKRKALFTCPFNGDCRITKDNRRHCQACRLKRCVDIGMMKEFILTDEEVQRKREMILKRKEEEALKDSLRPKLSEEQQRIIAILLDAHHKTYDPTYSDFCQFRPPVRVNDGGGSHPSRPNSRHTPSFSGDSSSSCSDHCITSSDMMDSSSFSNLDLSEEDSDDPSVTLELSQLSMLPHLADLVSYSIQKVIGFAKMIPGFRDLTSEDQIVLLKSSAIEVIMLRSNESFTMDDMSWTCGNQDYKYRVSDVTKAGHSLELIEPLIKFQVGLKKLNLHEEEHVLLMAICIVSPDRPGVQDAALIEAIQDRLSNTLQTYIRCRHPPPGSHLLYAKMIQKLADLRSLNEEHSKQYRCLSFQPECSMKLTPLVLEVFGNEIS
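VDR–SRC2-3 interaction, FP format. Cmpds 23 nl via pintool, brief spin, 2 h ambient incubation.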
Starred values were filed as active, the others as inactive; & = joins results of further samples; ! = not confirmed by another sample; [ ] = remark or other dose. % is set by controls: 0 for no effect and ±100 for the full control effect; potency is the fitted concentration of half-maximal effect. Not all compounds are listed (hit frequency here may not be typical).

Screening Cn1cc(C(=O)N2CCC3(CC2)OCCO3)c2c3ccccc3n(C)c2c1=O returned VDR inh -2%.
`CCCCOc1nc2ccccc2c(=O)n1-c1ccccc1` gave VDR inh -27%.
For COc1cc(CN2CC=C(c3ccc(F)cc3)CC2)cc(OC)c1 the results were VDR inh -11%.
Screening CN1CCN(Cc2ccc(N)cc2)CC1 returned VDR inh -5%.
`COc1ccccc1-n1c(O)c(C=NCCCn2ccnc2)c(=O)[nH]c1=O` gave VDR inh 17%.
COc1cccc(N2C(=O)CC(=O)NC2=O)c1 was read as VDR inh -28%.
COc1ccc(C[C@H]2c3cc(OC)c(OC)cc3CCN2C)cc1OC was read as VDR inh 0%.
N[C@@H](Cc1c[nH]c2ccccc12)c1nnc(SCc2c(F)cccc2Cl)o1 was read as VDR inh 6%.
`CC(CCc1ccccc1)NCCC#N` (stereo not given) gave VDR inh -4%.
For CC1CN(c2cc([N+](=O)[O-])ccc2Cl)CC(C)N1 (stereo not given) the results were VDR inh 2%.
For Oc1cc2c(cc1CN1CCN(c3ccccc3)CC1)OCO2 the results were VDR inh -1%.
Cc1c(C)c2ccc(OCC(=O)N3CCC(C(=O)O)(c4ccccc4)CC3)cc2oc1=O was read as VDR inh -4%.
For COc1ccccc1N1CCN(Cc2cc(C)c(C)cc2O)CC1 the results were VDR inh -1%.
Screening CC(C)OC(=O)Cc1ccccc1 returned VDR inh 1%.
Screening Cc1cc(OC(C)C(=O)NCC(O)c2ccccc2)c2c3c(c(=O)oc2c1)CCC3 (stereo not given) returned VDR inh 18%.
`CN(C)c1ccc(NC(=O)CN2C(=O)CN=C(c3ccccc3)c3cc(Cl)ccc32)cc1` gave VDR inh 8%.
Screening C#CC[N+]1(C)[C@@H]2CC[C@H]1CC(OC(=O)C(CO)c1ccccc1)C2 (stereo not given in full) returned VDR inh -16%.
Screening CC(=O)Oc1ccc(Cl)c2cccnc12 returned VDR inh 4%.
Screening CC1c2ccccc2-n2nncc2CN1CC1CCCCC1 (stereo not given) returned VDR inh 0%.
For CC[C@H](C)[C@H](NC(=O)[C@@H]1CCCN1C(=O)[C@H](CCC(=O)O)NC(=O)[C@@H](NC(=O)[C@H](Cc1ccccc1)NC(=O)[C@@H]1CCCN1C(=O)[C@@H](N)Cc1ccc(O)cc1)C(C)C)C(=O)O the results were VDR inh 0%.
O=C1/C(=C/c2cccc([N+](=O)[O-])c2)N2CCC1CC2 was read as VDR inh -14%.
Screening C[C@H]1CC[C@@]2(NC1)O[C@@H]1C[C@H]3[C@@H]4CC[C@@H]5C[C@@H](O)CC[C@@]5(C)[C@@H]4CC[C@]3(C)[C@@H]1[C@@H]2C returned VDR inh 0%.
CN1C2CCC1C(C(=O)O)C(OC(=O)c1ccccc1)C2 (stereo not given) was read as VDR inh 5%&1%.
For O=C(COc1ccccc1)Nc1ccc(Cl)cc1C(=O)c1ccccc1 the results were VDR inh 7%.
Screening C=C1C(=O)[C@@]23C[C@H]4[C@@H]5[C@@]6(C)CCC[C@@]57[C@@H]2[C@@H](O)[C@@H]1C[C@H]3[C@H]7N4C6 returned VDR inh 2%.
For Cc1ccc(C)c(NC(=O)CCNC(=O)N2C[C@H]3C[C@@H](C2)c2cccc(=O)n2C3)c1 the results were VDR inh -8%.
CCOc1ccc(C(=O)OC2CC3CCC(C2)N3C)cc1 (stereo not given) was read as VDR inh -6%.
CCCCc1cc(=O)oc2cc(OCC(=O)N3C[C@H]4C[C@@H](C3)c3cccc(=O)n3C4)c(Cl)cc12 was read as VDR inh -6%.
COC(=O)c1ccc(NC(=O)CSc2nc3ccc(N4C(=O)C5C6C=CC(C6)C5C4=O)cc3s2)cc1 (stereo not given) was read as VDR inh -13%.
Screening NCCCN1CCN(c2ccccc2)CC1 returned VDR inh 18%.
For O=C(Cc1ccccc1)N1CCN(Cc2ccc(Cl)cc2)CC1 the results were VDR inh 1%.
`COc1ccccc1N1CCN(C(CNC(=O)Oc2ccccc2)c2cccnc2)CC1` (stereo not given) gave VDR inh 14%.
For CCOc1ccc(N)cc1 the results were VDR inh -1%.
`O=c1c2ccccc2nc(CSc2ncnc3nc[nH]c23)n1-c1ccccc1Cl` gave VDR inh inconclusive.
CC(=O)OC(C)(C)/C=C/C(=O)[C@](C)(O)[C@H]1[C@H](O)C[C@@]2(C)[C@@H]3CC=C4[C@H](C[C@H](O)C(=O)C4(C)C)[C@]3(C)C(=O)C[C@]12C was read as VDR inh inconclusive.
Screening CCc1c(C)nc(N)nc1N1N=C1SCC(=O)OC returned VDR inh -7%.
Screening C[C@]12CCC(=O)C=C1CCc1ccc(O)cc12 returned VDR inh 5%.
`C[C@H]1C(=O)O[C@@H]2CCN3CC=C(COC(=O)[C@@](C)(O)[C@@]1(C)O)[C@H]23` gave VDR inh -4%.
`C/C=C1/CN2[C@@H]3C4CO[C@@H]3c3c([nH]c5cc(OC)ccc35)[C@@H]2CC14` (stereo not given in full) gave VDR inh 5%.
For COCCCNC(=O)c1c(NC(=O)c2ccccc2Cl)n(Cc2ccccc2)c2nc3ccccc3nc12 the results were VDR inh -22%.
For CC(C)C[C@H](NC(=O)[C@H](Cc1ccccc1)NC(=O)CNC(=O)CNC(=O)[C@@H](N)Cc1ccc(O)cc1)C(=O)N[C@@H](CCCN=C(N)N)C(=O)N[C@@H](CCCCN)C(=O)N[C@@H](Cc1ccc(O)cc1)C(=O)N1CCC[C@H]1C(=O)N[C@@H](CCCCN)C(=O)O the results were VDR inh -2%.
Screening Cc1cc(=O)oc2cc(OCC(=O)N3CCN(C(C)c4ccccc4)CC3)c(Cl)cc12 (stereo not given) returned VDR inh 8%.
`CCOP(=O)(OCC)C(NC(=O)c1ccc(OC)cc1)C(Cl)(Cl)Cl` (stereo not given) gave VDR inh -9%.
Screening Cc1cc2ccccc2n1CCNC(=O)COc1ccccc1 returned VDR inh inconclusive.
CC1(C)CC2CCC(O)C2C(CCO)N1 (stereo not given) was read as VDR inh 0%.
`C#CCOC(C(=O)OCCN(C)C)(c1ccccc1)c1ccccc1` gave VDR inh 15%.
For COC(=O)CN1CN(c2ccccc2)C2(CCN(Cc3ccc4ccccc4c3)CC2)C1=O the results were VDR inh inconclusive.
CC(CC(C)(C)N1CC1)=NO was read as VDR inh 0%.
Screening COc1ccc(S(=O)(=O)NC(CC(=O)N2CCC3(CC2)OCCO3)C(C)C)cc1 (stereo not given) returned VDR inh -3%.
`C=C1CC[C@@]2(O)[C@H]3Cc4ccc(O)c5c4[C@@]2(CCN3CC2CC2)[C@H]1O5` gave VDR inh -17%&10%.
Screening COC(=O)C1C(O)C(C)C(O)C(C)/C=C\C=C(/C)C(=O)Nc2c(C)c(OC(C)=O)c3c(c2O)C(=O)C(C)=C2OCOC(=C23)/C(C)=C/C(C)(O)C(O)C(C)C1O (stereo not given) returned VDR inh 0%.
COc1cc(C(=O)Nc2ccc(Br)cc2C(=O)c2ccccc2Cl)cc(OC)c1OC was read as VDR inh -12%.
For O=C1OC(c2ccc(Cl)cc2)=N/C1=C\N1CC2CC(C1)c1cccc(=O)n1C2 (stereo not given) the results were VDR inh -5%.
`Cc1ccc(/C=C2/C(=O)NC(=O)N(CCc3ccc(F)cc3)C2=O)o1` gave VDR inh 73%[activator].
`CC(=O)c1ccc(OCC(=O)N2CCCC(N3CCN(c4ccccc4C)CC3)C2)cc1` (stereo not given) gave VDR inh -6%.
`O=c1[nH]c(=O)n(CCc2ccc(F)cc2)c(O)c1C=NCCCn1ccnc1` gave VDR inh 3%.
Screening C[C@]12CC[C@H]3[C@@H](CCC4=CC(=O)CC[C@@]43O)[C@@H]1CCC2=O returned VDR inh -12%.
COC(=O)C1=C(c2cc3ccccc3s2)C[C@@H]2CC[C@H]1N2C(=O)NCc1cccc2ccccc12 was read as VDR inh -25%.
For CC1CN(CCc2ccccc2)CC(C)O1 (stereo not given) the results were VDR inh -2%.
COC(=O)C1=C(c2cccc(OC)c2OC)C[C@@H]2CC[C@H]1N2C(=O)NC1CCCCC1 was read as VDR inh 5%.

Of the compounds above, 4 have fluorine.
For COc1cc(CN2CC=C(c3ccc(F)cc3)CC2)cc(OC)c1 the results were VDR inh -11%.
N[C@@H](Cc1c[nH]c2ccccc12)c1nnc(SCc2c(F)cccc2Cl)o1 was read as VDR inh 6%.
`Cc1ccc(/C=C2/C(=O)NC(=O)N(CCc3ccc(F)cc3)C2=O)o1` gave VDR inh 73%[activator].
`O=c1[nH]c(=O)n(CCc2ccc(F)cc2)c(O)c1C=NCCCn1ccnc1` gave VDR inh 3%.

Continued.
`CC1=C(C(=O)OC(C)C)[C@]2(C(=O)N(CC(N)=O)c3ccccc32)C(C#N)=C(N)O1` gave VDR inh -2%.
For Cc1cc(S(=O)(=O)NC(C)C)ccc1OCC(=O)N1CCN(Cc2ccc3c(c2)OCO3)CC1 the results were VDR inh 28%.
`O=C1NC(=O)N(Cc2ccccc2Cl)C(=O)/C1=C/N1CCOCC1` gave VDR inh inconclusive.
Screening Brc1ccc2c(c1)C(OC1CN3CCC1CC3)c1ccccc1CS2 (stereo not given) returned VDR inh -7%.
Screening Cc1[nH]c2ccccc2c1C(=O)C(=O)N1CC2CC(C1)c1cccc(=O)n1C2 (stereo not given) returned VDR inh -21%.
Cc1ccc2[nH]c(=S)n(-c3cccnc3)c(=O)c2c1 was read as VDR inh -11%.
For COC(=O)C1=C(c2cccc3c2S(=O)(=O)c2ccccc2-3)C[C@@H]2CC[C@H]1N2C(=O)N1CCc2cc(OC)c(OC)cc2C1 the results were VDR inh -2%.
For C=C1[C@@H](O)C2C=CC[C@H](C)C(=O)[C@@](C)(O)C=C[C@@H](OC(C)=O)[C@@]23C(=O)N[C@H](Cc2ccccc2)[C@@H]3[C@@H]1C (stereo not given in full) the results were VDR inh 1%.
Screening CSc1ncc(Br)c(N2CC2)n1 returned VDR inh -8%.
Screening COC(=O)C1=C(c2c(C)noc2C)C[C@@H]2CC[C@H]1N2C(=O)N1CCC(O)(c2ccc(Cl)cc2)CC1 returned VDR inh -15%.
`CC[C@H]1CN2CC[C@@H]1C[C@H]2[C@@H](O)c1ccnc2ccc(OC)cc12` gave VDR inh 11%.
For Oc1c(Cl)cccc1Cc1cc(Cl)cc(Cl)c1O the results were VDR inh -15%.
Screening CC(=NCc1cccnc1)c1c(O)n(-c2ccc(Cl)cc2)c(=O)[nH]c1=O returned VDR inh 0%.
CN(C)C(=S)SSC(=S)N(C)C was read as VDR inh 2.5µM*!.
Cc1o[nH]c(=O)c1C[C@@H](N)C(=O)O was read as VDR inh -22%&4%.
For C[C@H]1CC[C@@]2(NC1)O[C@@H]1C[C@H]3[C@@H]4CC=C5C[C@@H](O)CC[C@]5(C)[C@@H]4CC[C@]3(C)[C@@H]1[C@@H]2C the results were VDR inh -1%.
For N=C1c2ccccc2CN1NC(=O)c1ccc(Cl)cc1 the results were VDR inh -5%.
`COC(=O)C1=C(c2ccc(F)cc2OCc2ccccc2)C[C@@H]2CC[C@H]1N2C(=O)NCc1ccc2c(c1)OCO2` gave VDR inh 1%.
CN1C(=O)C(=Cc2ccc(N3CCCCCC3)cc2)C(=O)N(C)C1=O was read as VDR inh 3%.
For CC(C)(C)OC(=O)N1CC[C@H]1COc1cnc[c]([Sn]([CH3])([CH3])[CH3])c1 the results were VDR inh 6%.

Molecules from the list above with a COOH group, in the order listed:
Cc1c(C)c2ccc(OCC(=O)N3CCC(C(=O)O)(c4ccccc4)CC3)cc2oc1=O was read as VDR inh -4%.
For CC[C@H](C)[C@H](NC(=O)[C@@H]1CCCN1C(=O)[C@H](CCC(=O)O)NC(=O)[C@@H](NC(=O)[C@H](Cc1ccccc1)NC(=O)[C@@H]1CCCN1C(=O)[C@@H](N)Cc1ccc(O)cc1)C(C)C)C(=O)O the results were VDR inh 0%.
CN1C2CCC1C(C(=O)O)C(OC(=O)c1ccccc1)C2 (stereo not given) was read as VDR inh 5%&1%.
For CC(C)C[C@H](NC(=O)[C@H](Cc1ccccc1)NC(=O)CNC(=O)CNC(=O)[C@@H](N)Cc1ccc(O)cc1)C(=O)N[C@@H](CCCN=C(N)N)C(=O)N[C@@H](CCCCN)C(=O)N[C@@H](Cc1ccc(O)cc1)C(=O)N1CCC[C@H]1C(=O)N[C@@H](CCCCN)C(=O)O the results were VDR inh -2%.
Cc1o[nH]c(=O)c1C[C@@H](N)C(=O)O was read as VDR inh -22%&4%.

Next records
`O=C(COc1ccc(Cl)cc1)N1CCN(C2CCCC2)CC1` gave VDR inh 12%.
O=C(CS(=O)C(c1ccccc1)c1ccccc1)NO (stereo not given) was read as VDR inh -10%&0%.
`CCOC(=O)C1CCN(/C=C2/C(=O)NC(=O)N(Cc3ccco3)C2=O)CC1` gave VDR inh -5%.
Cc1ccccc1-n1c(-c2ccoc2)nc2ccccc2c1=O was read as VDR inh -11%.
`Cc1c(N=Cc2c(O)n(CCc3ccccc3)c(=O)[nH]c2=O)c(=O)n(-c2ccccc2)n1C` gave VDR inh -10%.
`COC(=O)C1=C(c2cc3ccccc3o2)C[C@@H]2CC[C@H]1N2C(=O)NC(C)C` gave VDR inh -13%.
For CN(Cc1ccccc1)C1CCCN(C(=O)COc2ccccc2Cl)C1 (stereo not given) the results were VDR inh -4%.
Screening COc1ccc(C=C2C(=O)NC(=S)NC2=O)cc1OC returned VDR inh 40µM*.
`COc1ccc(CCn2c(O)c(/C=N/N3CCCCC3)c(=O)[nH]c2=O)cc1OC` gave VDR inh -6%.

Bioassay records deposited in PubChem BioAssay by National Center for Advancing Translational Sciences (NCATS).
